Source: PubChem
rRNA inh HTS = inhibitors of bacterial rRNA selective over humanized ribosomes; 350,000 tested, 1.6% active; E. coli WT GFP vs humanized-ribosome RFP mutants, fluorescence, 24 h; active compounds read low; DMSO median 0, no signal -100; GFP signal change (wild-type ribosome), % (no concentration beside the values);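 active means significant combined selectivity score with lowered wild-type GFP, culture density cut under 30%, mutant RFP and density less affected; inactive means any of these conditions unmet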; further: one replicate is shown; some compounds called inactive have numbers as strong as hits
rRNA inh HTS OD600 = also measured in rRNA inh HTS; calls as there; OD600 change, %; measured here: OD600 growth;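 optical density of the mix in the first replicate; 0 = DMSO median and -100 = no signal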
rRNA inh HTS RFP = also measured in rRNA inh HTS; calls as there; RFP signal change, %; measured here: RFP humanized mutant strains;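 first replicate; 0 = DMSO median and -100 = no signal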
* = called active by the depositor. A portion of the library; the hit share may differ from the screen's.

Order of results – rRNA inh HTS	rRNA inh HTS OD600	rRNA inh HTS RFP
- CO[C@@H]1CN(C)C(=O)c2cc(NC(=O)Nc3cccc(Cl)c3)ccc2OC[C@@H](C)N(C(=O)Nc2c(C)noc2C)C[C@@H]1C
    -5.7	-15.0	1.2
- COc1ccc2c3c([nH]c2c1)[C@@H](CO)N(C(=O)NC(C)C)CC31CCN(C(=O)NC(C)C)CC1
    1.2	7.8	-2.7
- O=C(C[C@@H]1CC[C@H]2[C@@H](COC[C@H](O)CN2CCc2ccccc2)O1)NCc1ccccc1
    5.1	17.9	-2.9
- CCc1nc2ccc(C(=O)NCCc3ccccn3)cn2c1N(C)Cc1nccs1
    5.1	2.7	-0.9
- COc1ccc(C(=O)NC2CC(C)(C)NC(C)(C)C2)cc1S(=O)(=O)N1CCOCC1
    6.8	11.3	-3.8
- COc1cccc(C(c2nnnn2C2CCCCC2)N2CCN(C/C=C/c3ccccc3)CC2)c1OC (stereo unspecified)
    -43.3	-72.1	1.4
- COc1ccc(C#Cc2ccc([C@H]3[C@@H](CO)N4CCCCN(C)C[C@@H]34)cc2)cc1
    -0.5	5.5	0.6
- COCCCn1cc(CN2CC(N3CCN(CCO)CC3)CS2(=O)=O)nn1 (stereo unspecified)
    5.7	5.8	0.4
- COc1ccc(S(=O)(=O)N(C)C[C@H]2OCc3ccccc3-c3c(n(C)c4ccccc34)C(=O)N([C@H](C)CO)C[C@@H]2C)cc1
    2.6	3.0	3.4
- Cc1ccc(S(=O)(=O)N(C)C[C@@H]2Oc3ccc(NC(=O)CCN4CCOCC4)cc3C(=O)N([C@H](C)CO)C[C@H]2C)cc1
    1.3	5.4	0.8
- CNC[C@H]1Oc2ccc(NC(=O)C3CC3)cc2CC(=O)N([C@H](C)CO)C[C@@H]1C
    3.1	-4.2	-0.9
- COc1ccccc1NC(=O)N1CC(=O)N2[C@@H](CO)[C@@H](c3ccc(C#Cc4ccccc4)cc3)[C@@H]2C1
    1.9	-24.9	17.7
- COc1ccc(-c2ccc3c(c2)O[C@H](CN(C)C)[C@@H](C)CN([C@H](C)CO)S3(=O)=O)cc1
    2.7	-0.1	0.3
- CC=Cc1ccc2n(c1=O)C[C@H]1[C@H](CO)[C@@H](C(=O)NCc3ccncc3)N(Cc3cncnc3)[C@@H]21 (mixture of isomers)
    1.5	1.7	-1.4
- C[n+]1ccc2[nH]c3ccccc3c2c1
    10.1	3.8	-0.8

Part of the list above, with values ahead of the structure:
rRNA inh HTS | rRNA inh HTS OD600 | rRNA inh HTS RFP | Compound
2.7 | -0.1 | 0.3 | COc1ccc(-c2ccc3c(c2)O[C@H](CN(C)C)[C@@H](C)CN([C@H](C)CO)S3(=O)=O)cc1
2.6 | 3.0 | 3.4 | COc1ccc(S(=O)(=O)N(C)C[C@H]2OCc3ccccc3-c3c(n(C)c4ccccc34)C(=O)N([C@H](C)CO)C[C@@H]2C)cc1
-5.7 | -15.0 | 1.2 | CO[C@@H]1CN(C)C(=O)c2cc(NC(=O)Nc3cccc(Cl)c3)ccc2OC[C@@H](C)N(C(=O)Nc2c(C)noc2C)C[C@@H]1C
6.8 | 11.3 | -3.8 | COc1ccc(C(=O)NC2CC(C)(C)NC(C)(C)C2)cc1S(=O)(=O)N1CCOCC1

Continued:
Order of results – rRNA inh HTS	rRNA inh HTS OD600	rRNA inh HTS RFP
- C[C@@H]1CN([C@H](C)CO)C(=O)c2cc(C#CC3CC3)cnc2O[C@H]1CN(C)Cc1ccccn1
    0.7	5.5	-2.5
- Cc1ccc(S(=O)(=O)N(C)C[C@H]2Oc3ccc(NC(=O)Nc4c(C)noc4C)cc3C(=O)N([C@@H](C)CO)C[C@H]2C)cc1
    0.9	2.1	1.1
- Cc1noc(C)c1S(=O)(=O)Nc1cccc2c1O[C@@H](CN(C)Cc1ccc(C(=O)O)cc1)[C@@H](C)CN([C@@H](C)CO)C2=O
    1.5	15.5	-3.1
- C[C@H]1CN([C@@H](C)CO)S(=O)(=O)c2ccc(Br)cc2O[C@@H]1CN(C)C(=O)C1CC1
    -0.6	0.0	-2.4
- COc1ccccc1C(=O)N1CCN(C(=O)[C@H]2O[C@@H](n3ccc(N)nc3=O)[C@H](O)[C@@H]2O)CC1
    7.5	17.0	3.4
- COc1ccc(S(=O)(=O)Nc2ccc3c(c2)C(=O)N([C@H](C)CO)C[C@H](C)[C@H](CN(C)Cc2ccc(C(F)(F)F)cc2)OCCCC[C@@H](C)O3)cc1
    4.0	6.9	-0.6
- COc1ccccc1-c1cnc2c(c1)C(=O)N([C@H](C)CO)C[C@@H](C)[C@@H](CN(C)Cc1cncnc1)O2
    0.6	3.3	-1.6
- Cc1ccc(-c2cnc3c(c2)C(=O)N([C@H](C)CO)C[C@H](C)[C@@H](CN(C)C(=O)Cc2ccccc2)O3)cc1
    -7.0	-30.9	5.9
- Cc1noc(C)c1S(=O)(=O)N(C)C[C@@H]1OCCCC[C@H](C)Oc2ccc(NC(=O)Nc3ccccc3)cc2C(=O)N([C@H](C)CO)C[C@H]1C
    3.6	0.1	0.1
- C[C@H]1CN([C@@H](C)CO)C(=O)c2cc(-c3cncnc3)cnc2O[C@@H]1CN(C)Cc1cncnc1
    3.8	9.6	-5.0
- CO[C@@H]1CN(C)C(=O)c2cc(NC(=O)C3CCC3)ccc2OC[C@H](C)N(C(=O)CN(C)C)C[C@@H]1C
    0.9	-2.9	-2.8
- C[C@@H]1CN([C@H](C)CO)C(=O)c2cccc(NC(=O)Nc3cccc4ccccc34)c2O[C@@H]1CN(C)S(=O)(=O)c1ccc(F)cc1
    -1.2	1.4	-3.4
- CCc1ccc(C(O)c2ncc(-c3ccccc3C)[nH]2)cc1 (stereo unspecified)
    -59.8	-76.0	-22.6
- CCCNC(=O)N1CC2(CCN(C(=O)C3CC3)CC2)c2c([nH]c3cc(OC)ccc23)[C@H]1CO
    -5.5	2.1	-1.7
- O=C(CCN1CCCCC1)NCC[C@@H]1CC[C@H](NC(=O)Nc2ccc(Cl)cc2)[C@H](CO)O1
    2.6	-2.0	0.7

More compounds.
Order of results – rRNA inh HTS	rRNA inh HTS OD600	rRNA inh HTS RFP
- CCN(C[C@@H]1N[C@@H](CO)[C@@H]1c1ccc(C2=CCCC2)cc1)C(=O)c1cccnc1
    -0.1	-0.2	-1.0
- C[C@@H]1CN([C@H](C)CO)S(=O)(=O)c2ccc(/C=C/c3ccccc3)cc2O[C@H]1CN(C)C(=O)c1ccccc1
    -7.6	-10.6	1.2
- CC(C)NC(=O)Nc1ccc2c(c1)C(=O)N([C@H](C)CO)C[C@@H](C)[C@H](CN(C)Cc1ccc(Oc3ccccc3)cc1)O2
    4.2	-19.5	-3.2
- COc1ccc(CNC(=O)N(C)C[C@@H]2OCc3ccccc3-c3ccccc3C(=O)N([C@@H](C)CO)C[C@@H]2C)cc1
    -0.1	2.3	-1.8
- C[C@@H]1CCCCO[C@H](CN(C)S(=O)(=O)c2cccs2)[C@@H](C)CN([C@@H](C)CO)C(=O)c2cc(NS(=O)(=O)c3ccccc3)ccc2O1
    -0.4	3.4	0.0
- COc1ccc(CN(C)C[C@@H]2Oc3ccc(NC(=O)Nc4ccc5c(c4)OCO5)cc3C(=O)N([C@H](C)CO)C[C@@H]2C)cc1
    2.0	1.8	2.1
- Cc1noc(C)c1NC(=O)N(C)C[C@@H]1OCCCC[C@H](C)Oc2ccc(NS(=O)(=O)c3ccc(F)cc3)cc2C(=O)N([C@H](C)CO)C[C@@H]1C
    -3.3	1.3	0.3
- Fc1cccc(Cc2c(-c3ccccc3)nc3c(Cl)cc(C(F)(F)F)cn23)c1
    -0.8	6.4	7.8
- O=C(C[C@@H]1C[C@H]2c3cc(NC(=O)NC4CCCC4)ccc3O[C@H]2[C@H](CO)O1)NCc1cc(F)ccc1F
    0.8	5.8	1.2
- C[C@@H]1CN([C@H](C)CO)C(=O)Cc2cc(NC(=O)Nc3ccc4c(c3)OCO4)ccc2O[C@H]1CN(C)Cc1ccc(Cl)c(Cl)c1
    1.8	-1.9	-1.8
- CNc1nc(Oc2cccc(NC(C)=O)c2)c2sccc2n1
    8.1	14.5	-0.4
- N#C[C@@H]1[C@H](c2ccc(C#CC3CCCC3)cc2)[C@H](CO)N1C(=O)Nc1ccc(F)cc1
    -7.6	-43.5	25.4
- O=C(c1cccnc1)N1C[C@@H]2[C@H](c3ccccc31)[C@H](CO)N2CC1CCCC1
    -3.3	-3.9	0.9
- CN1CCN(C(=O)C[C@H]2C[C@H]3c4cc(NC(=O)CC5CC5)ccc4O[C@H]3[C@@H](CO)O2)CC1
    1.9	-2.5	-2.3
- COCC#Cc1ccc2c(c1)O[C@H](CN(C)C)[C@H](C)CN([C@@H](C)CO)S2(=O)=O
    0.2	-17.5	-1.8

Continued.
Order of results – rRNA inh HTS	rRNA inh HTS OD600	rRNA inh HTS RFP
- O=C(N[C@@H]1CC[C@@H](CCn2cc(-c3ccccc3)nn2)O[C@H]1CO)c1cnccn1
    1.2	5.2	1.6
- CCC(=O)N(C)C[C@H]1[C@H](c2ccc(-c3ccccc3F)cc2)[C@@H](CO)N1C(C)=O
    -3.0	-6.2	1.0
- O=C(C[C@H]1CC[C@@H](NC(=O)CN2CCOCC2)[C@@H](CO)O1)NCCc1ccccc1
    3.1	1.6	-2.7
- COc1ccc(S(=O)(=O)Nc2ccc3c(c2)C(=O)N([C@@H](C)CO)C[C@@H](C)[C@@H](CN(C)Cc2ccc4c(c2)OCO4)OCCCC[C@H](C)O3)cc1
    1.4	-23.7	9.4
- CNC(=O)C[C@H]1CC[C@H]2[C@@H](COc3ccc(NC(=O)c4ccc(F)cc4)cc3C(=O)N2C)O1
    -0.2	-1.3	-1.5
- C[C@H](CO)N1C[C@H](C)[C@H](CN(C)C(=O)Nc2cccc(F)c2)Oc2cc(/C=C/c3ccccc3)ccc2S1(=O)=O
    -2.0	7.6	0.5
- C[C@@H]1CCCCO[C@H](CN(C)S(C)(=O)=O)[C@H](C)CN([C@H](C)CO)C(=O)c2cc(N(C)C)ccc2O1
    1.0	1.8	0.7
- C[C@@H]1CN([C@@H](C)CO)C(=O)c2cc(NC(=O)CCCCCC(=O)Nc3ccccc3N)ccc2O[C@@H]1CN(C)CC1CCCCC1
    -0.6	-2.4	-2.3
- O=C(NC1CCCC1)N1CC2(C1)[C@H](c1ccccc1)[C@H](CO)N2S(=O)(=O)Cc1ccccc1
    -2.1	-2.9	1.1
- C[C@H]1CN([C@@H](C)CO)C(=O)c2cccc(NC(=O)c3cnccn3)c2O[C@H]1CN(C)Cc1ccc2c(c1)OCO2
    -0.2	7.1	0.4
- O=C(Nc1ccc(Cl)c(Cl)c1)N[C@H]1CC[C@H](CCn2cc(C3CCCCC3)nn2)O[C@@H]1CO
    -33.8	-29.9	1.0
- CCOC(=O)c1ccc(CN2CCCC(C)(C(=O)NCCOC)C2)cc1 (stereo unspecified)
    13.3	16.5	-0.3
- C[C@@H]1CN([C@@H](C)CO)C(=O)Cc2cc(N(C)C)ccc2O[C@@H]1CN(C)Cc1ccc(Oc2ccccc2)cc1
    -6.3	-40.0	29.1
- COc1cccc(NC(=O)N(C)C[C@H]2Oc3cc(C#Cc4ccc(F)cc4)ccc3S(=O)(=O)N([C@H](C)CO)C[C@@H]2C)c1
    -0.6	11.9	3.2
- COc1ccc2c3c(n(C)c2c1)[C@H](CO)N(C(=O)CN1CCOCC1)CC31CN(C)C1
    5.3	10.9	-3.0

More entries
Order of results – rRNA inh HTS	rRNA inh HTS OD600	rRNA inh HTS RFP
- CCCNC(=O)C[C@H]1C[C@@H]2c3cc(NC(=O)C4CCC4)ccc3O[C@@H]2[C@H](CO)O1
    0.6	7.0	-1.0
- CCC(=O)N1CC2(CN(Cc3ccncc3)C2)c2c(n(C)c3cc(OC)ccc23)[C@@H]1CO
    0.9	-3.9	-2.0
- C[C@H](CO)N1C[C@H](C)[C@H](CN(C)C(=O)C2CCC2)Oc2ncc(-c3cccc(C#N)c3)cc2C1=O
    2.7	8.0	-0.2
- CC1Cc2ccccc2N1C(=O)COC(=O)c1ccco1 (stereo unspecified)
    -2.4	0.5	0.5
- CCCN(C)C[C@H]1Oc2ncc(-c3ccccc3F)cc2C(=O)N([C@H](C)CO)C[C@H]1C
    5.1	13.0	-0.4
- Cc1ccc(S(=O)(=O)N2C[C@H]3N(C(=O)OC(C)C)N(C(=O)OC(C)C)C[C@H](OC(=O)NC4CC4)[C@@]3(O)C2)cc1
    2.9	7.2	0.2
- O=C(c1cccnc1)N1CC(=O)N2[C@@H](CO)[C@H](c3ccc(-c4ccc(F)cc4)cc3)[C@@H]2C1
    0.6	14.8	-4.1
- CCCN(C)C[C@@H]1Oc2ncc(C#CCC(C)C)cc2C(=O)N([C@H](C)CO)C[C@H]1C
    6.4	4.6	1.5
- COc1ccccc1NC(=O)N(C)C[C@@H]1Oc2cc(Br)ccc2S(=O)(=O)N([C@@H](C)CO)C[C@@H]1C
    -4.6	2.6	-1.8
- C[C@@H]1CN([C@@H](C)CO)S(=O)(=O)c2ccc(C#CC(C)(C)O)cc2O[C@@H]1CN(C)C(=O)CN(C)C
    3.3	6.2	0.7
- CN1CCN(C(=O)c2cc3c(c(-c4cccc(C5=CCCC5)c4)n2)[C@H](CCO)N([S@@](=O)C(C)(C)C)C3)CC1
    0.9	6.4	3.2
- CCNC(=O)Nc1ccc2c(c1)C(=O)N(C)[C@H]1CC[C@H](CC(=O)N[C@@H](C)c3ccccc3)O[C@H]1CO2
    1.3	3.9	0.3
- Cc1cccc(-c2cc(NC=O)c3ncc(-c4cccc(C(=O)N(C)C)c4)n3c2)c1
    -0.3	5.5	21.7
